AF4-AF9 inh = inhibitors of human MLL-AF4/AF9 interaction | P42568 | AlphaScreen, biotin-AF4 peptide binding to FLAG-AF9 | inhibition, % at 10 µM | 350,000 compounds, 0.47% hits;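 active = every replicate reaching a set inhibition limit, whatever the replicate mean, cut at about 25% in these data; inconclusive = mean inhibition reaches that limit but some replicates miss it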;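 also: 0% = plate neutral control median and 100% = total signal loss; the record names both 10 and 1 µM as test concentration; the first replicate is given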
Target sequence (P42568 whole entry, looked up): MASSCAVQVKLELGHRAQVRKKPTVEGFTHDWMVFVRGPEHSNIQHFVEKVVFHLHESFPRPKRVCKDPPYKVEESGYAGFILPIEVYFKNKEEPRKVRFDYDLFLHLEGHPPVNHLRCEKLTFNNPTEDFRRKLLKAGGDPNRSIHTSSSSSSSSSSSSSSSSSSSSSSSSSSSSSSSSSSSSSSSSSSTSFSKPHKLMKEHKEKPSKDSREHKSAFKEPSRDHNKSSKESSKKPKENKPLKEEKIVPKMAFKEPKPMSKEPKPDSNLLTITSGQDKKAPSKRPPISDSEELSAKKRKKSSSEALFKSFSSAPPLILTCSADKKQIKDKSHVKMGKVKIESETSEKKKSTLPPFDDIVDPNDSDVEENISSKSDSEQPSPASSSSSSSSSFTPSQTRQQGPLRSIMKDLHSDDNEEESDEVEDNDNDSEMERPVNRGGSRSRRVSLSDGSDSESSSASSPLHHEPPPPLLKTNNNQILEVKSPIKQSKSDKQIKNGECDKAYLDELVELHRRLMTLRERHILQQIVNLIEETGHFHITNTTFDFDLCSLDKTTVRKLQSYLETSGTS
* hit, by the source's call; ? = inconclusive; & = joins results of further samples. An excerpt; count on the stated rates, not on these rows.

SMILES	AF4-AF9 inh
C[C@@H]1CCCCO[C@@H](CN(C)S(=O)(=O)c2ccc(Cl)cc2)[C@@H](C)CN([C@@H](C)CO)C(=O)c2cc(NC(=O)CCC(F)(F)F)ccc2O1	0.9
Cc1noc(C)c1NC(=O)N(C)C[C@H]1OCCCC[C@H](C)Oc2ccc(NS(=O)(=O)c3cccs3)cc2C(=O)N([C@H](C)CO)C[C@@H]1C	-0.4
CC(C)CC#Cc1ccc([C@H]2[C@@H](CO)N3C(=O)CN(C(=O)NC4CCCC4)C[C@@H]23)cc1	3.4
CN1C(=O)c2cc(NC(=O)c3ccc(F)cc3)ccc2OC[C@@H]2O[C@H](CC(=O)N3CCOCC3)CC[C@H]21	-2.0
C[C@@H]1CN([C@H](C)CO)S(=O)(=O)c2ccc(-c3cccnc3)cc2O[C@@H]1CN(C)C(=O)NC1CCCC1	0.7
C[C@H](CO)N1C[C@H](C)[C@@H](CN(C)S(=O)(=O)c2ccc(Oc3ccccc3)nc2)OCc2cnnn2CCCC1=O	0.2&-3.3
C[C@H]1CN([C@@H](C)CO)S(=O)(=O)c2ccc(Br)cc2O[C@@H]1CN(C)S(=O)(=O)c1ccccc1F	1.4&1.2
COc1ccc2c(CN3CCN(c4ccc(Cl)c(Cl)c4)CC3)cc(=O)oc2c1	-0.2
Cc1noc(C)c1NC(=O)N(C)C[C@@H]1Oc2ccc(NC(=O)Nc3ccc(F)cc3)cc2CC(=O)N([C@@H](C)CO)C[C@@H]1C	-2.7
O=C([C@H]1[C@H](CO)[C@H]2Cn3c(ccc(-c4ccc(F)cc4)c3=O)[C@H]2N1Cc1cocn1)N1CCCCC1	2.7
COc1ccccc1CN1C(=O)c2ccccc2[C@@]2(Cc3ccccc3N(CCN3CCOCC3)C2=O)[C@@H]1c1ccc(CO)cc1	-2.5
C/C=C/c1ccc([C@H]2[C@@H](C#N)N(c3ncc(CC)s3)[C@H]2CO)cc1	1.9
CC(=O)Nc1ccc(C(=O)N2CCCC(c3cc(C(=O)Nc4ccccc4)no3)C2)cc1 (centres undefined)	1.8
CCCCn1nnnc1C1(C)CCC(=O)N1CCOc1ccccc1 (centres undefined)	-2.6
Cc1cccc(C)c1NC(=O)CN(Cc1ccccc1)Cc1ccccc1	-1.8
O=C(C[C@H]1C[C@@H]2c3cc(NC(=O)C4CCC4)ccc3O[C@@H]2[C@H](CO)O1)NC1CCCC1	-0.2
C[C@H](CO)N1C[C@H](C)[C@@H](CN(C)CC2CCCCC2)Oc2ccc(NC(=O)Nc3cccc4ccccc34)cc2C1=O	10
COCC(=O)Nc1ccc2c(c1)[C@H]1C[C@H](CC(=O)N(C)C)O[C@H](CO)[C@H]1O2	-0.6
Cc1ccc(S(=O)(=O)NCC[C@@H]2CC[C@H](NC(=O)NC(C)C)[C@H](CO)O2)cc1	-21
Cc1ccc(S(=O)(=O)NC(=O)C2(C)CCN2C(=O)Cc2ccc(C(C)(C)C)cc2)nc1 (centres undefined)	0.1
NCCCCCCNC(=O)[C@@H]1C[C@@H]2C(=O)N[C@@H](Cc3ccccc3)C(=O)N2[C@@H]1c1ccc(O)cc1	-0.4
C[C@@H]1CN([C@H](C)CO)S(=O)(=O)c2ccc(-c3cccnc3)cc2O[C@@H]1CN(C)C(=O)c1cccc(F)c1	8.0
Cn1c(=O)c2cc(NC(=O)NCc3ccccc3)ccc2n1C/C=C/c1ccccc1	-0.5
C[C@@H]1CN([C@H](C)CO)C(=O)Cc2cc(NC(=O)C3CC3)ccc2O[C@@H]1CN(C)Cc1ccc(C(=O)O)cc1	-3.1
COc1ccc(-c2cnc3c(c2)C(=O)N([C@H](C)CO)C[C@H](C)[C@@H](CN(C)Cc2ccc(C(=O)O)cc2)O3)cc1	-2.1
CCC(=O)N1CC2(C1)CN(C(C)=O)[C@@H](CO)c1[nH]c3cc(OC)ccc3c12	0.3
COc1ccc(C#Cc2ccc3c(c2)O[C@@H](CN(C)S(=O)(=O)c2ccccc2F)[C@@H](C)CN([C@@H](C)CO)S3(=O)=O)cc1	-3.8
CN(C)Cc1cn(CC[C@H]2CC[C@H](N)[C@@H](CO)O2)nn1	0.0
O=C(N[C@@H]1CC[C@H](CC(=O)N2CCOCC2)O[C@H]1CO)c1cccc(F)c1	-2.7
CC(C)CC#Cc1cnc2c(c1)C(=O)N([C@@H](C)CO)C[C@@H](C)[C@@H](CN(C)C(=O)Nc1cc(F)ccc1F)O2	-3.0
O=C(C[C@H]1C[C@H]2c3cc(NC(=O)CC4CC4)ccc3O[C@H]2[C@H](CO)O1)NCc1cc(F)ccc1F	-0.7
Cc1ccc(OC(=O)N(C)C[C@@H]2OCc3ccccc3-c3ccccc3C(=O)N([C@@H](C)CO)C[C@@H]2C)cc1	-2.9
CN(C)C(=O)c1cccc(-c2ccc([C@H]3[C@@H](C#N)N(C(=O)C4CCC4)[C@@H]3CO)cc2)c1	-0.9
C[C@@H]1CCCCO[C@H](CN(C)Cc2ccc(C(F)(F)F)cc2)[C@H](C)CN([C@@H](C)CO)C(=O)c2cc(NS(=O)(=O)c3ccc(F)cc3)ccc2O1	1.2
C[C@H]1CCCCO[C@@H](CN(C)C)[C@@H](C)CN([C@@H](C)CO)C(=O)c2cc(NS(=O)(=O)c3cn(C)cn3)ccc2O1	-8.1
C[C@H]1CCCCO[C@H](CN(C)Cc2ccccc2)[C@@H](C)CN([C@@H](C)CO)C(=O)c2cc(NC(=O)Nc3ccc4c(c3)OCO4)ccc2O1	-11
O=C(C[C@H]1C[C@@H]2c3cc(NC(=O)NC4CCCCC4)ccc3O[C@@H]2[C@@H](CO)O1)NCCc1ccccc1	-21
CC(=O)NC[C@@H]1[C@H](c2ccc(-c3ccccc3)cc2)[C@H](CO)N1C(=O)C1CC1	-10
C[C@H](CO)N1C[C@H](C)[C@H](CN(C)C(=O)CCCN(C)C)OCCCC[C@H](C)Oc2ccc(NS(=O)(=O)c3ccccc3)cc2C1=O	-1.3
CC(=O)N(C)C[C@@H]1Oc2ncc(-c3ccccc3C)cc2C(=O)N([C@H](C)CO)C[C@H]1C	-2.3
COCc1cn(CC[C@H]2CC[C@H](NC(=O)Cc3cccnc3)[C@@H](CO)O2)nn1	-0.8
C[C@@H]1CN([C@@H](C)CO)S(=O)(=O)c2ccc(C#CCC3CCCC3)cc2O[C@@H]1CN(C)C(=O)CC1CC1	-0.3
C[C@@H]1CCCCO[C@@H](CN(C)C(=O)NC2CCCCC2)[C@H](C)CN([C@H](C)CO)C(=O)c2cc(NS(=O)(=O)c3ccc(F)cc3)ccc2O1	2.9
C[C@H]1CCCCO[C@H](CN(C)C(=O)Nc2ccc(F)cc2)[C@@H](C)CN([C@@H](C)CO)C(=O)c2cc(NS(C)(=O)=O)ccc2O1	0.7
O=C(N[C@H]1CC[C@@H](CCn2cc(-c3ccccn3)nn2)O[C@H]1CO)c1cccnc1	-3.8
CC(C)NC(=O)N(C)C[C@H]1Oc2ncc(-c3cncnc3)cc2C(=O)N([C@@H](C)CO)C[C@H]1C	-3.2
CN(C(=O)c1ccc(NC(=O)Cc2cccc(NC(=O)C3CCCN(C(=O)c4ccccc4)C3)c2)cc1)C1CC1 (centres undefined)	-1.6
O=C1[C@@H](Cc2ccccc2)CCn2cc(nn2)COCC2CCCN12 (some centres undefined)	-4.2
COC(=O)C[C@@H]1CC[C@@H]2[C@@H](COc3ccc(NC(=O)c4cnccn4)cc3C(=O)N2C)O1	-1.5
CN(C)C(=O)C[C@H]1CC[C@@H]2[C@H](COC[C@@H](O)CN2CC2CC2)O1	-5.3
Cc1ccc(S(=O)(=O)N(C)C[C@@H]2Oc3ccc(NC(=O)NC4CCCCC4)cc3C(=O)N([C@H](C)CO)C[C@H]2C)cc1	1.4
COc1ccc(-c2cc3nc(NCCCN(C)C)n(C)c(=O)c3s2)c(C)c1	2.4
CC(C)(C)C(=O)c1c(N)[nH]c(C(=O)c2ccccc2)c1-c1ccc(Cl)cc1Cl	-1.1
CCNC(=O)C1(C)CCN(C(=O)c2cc(OC)c(OC)c(OC)c2)C1 (centres undefined)	-0.4
COc1ccc(-c2cc3nc(-c4ccccc4)cc(N4CCN(C(=O)c5ccccc5)CC4)n3n2)cc1	-3.3
CCCNC(=O)N1C[C@@H](C)[C@H](OC)CN(C)C(=O)c2ccc(NS(C)(=O)=O)cc2OC[C@H]1C	-3.8
Cc1ccc(S(=O)(=O)N(C)C[C@@H]2Oc3ccc(NS(=O)(=O)c4c(C)noc4C)cc3CC(=O)N([C@H](C)CO)C[C@@H]2C)cc1	1.1
C[C@@H]1CN([C@@H](C)CO)C(=O)c2cccc(NC(=O)Nc3ccc(F)cc3)c2O[C@@H]1CN(C)CC1CCCCC1	-1.3
C/C=C/c1cnc2c(c1)C(=O)N([C@@H](C)CO)C[C@@H](C)[C@@H](CN(C)C(=O)Cc1ccccc1)O2	-1.3
Cc1cccc(C)c1NC(=O)C(C)n1c(-c2ccc(=O)[nH]c2)nc2ccccc21 (centres undefined)	3.5
(listing goes on)
SMILES	AF4-AF9 inh
COc1cccc(NC(=O)N2C[C@H](O)COC[C@H]3O[C@H](CC(=O)N(C)C)CC[C@@H]32)c1	-4.2
C[C@@H]1CN([C@H](C)CO)C(=O)c2cccc(NC(=O)CCCCCC(=O)Nc3ccccc3N)c2O[C@@H]1CN(C)C(=O)Nc1ccc2c(c1)OCO2	6.2
C[C@H]1CN([C@@H](C)CO)C(=O)Cc2cc(NC(=O)Nc3ccccc3)ccc2O[C@H]1CN(C)S(=O)(=O)c1ccc(Cl)cc1	-2.4
CC(C)NC(=O)Nc1ccc2c(c1)C(=O)N([C@@H](C)CO)C[C@H](C)[C@H](CN(C)C(=O)Cc1ccccc1)OCCCC[C@@H](C)O2	-1.7
C=CC1c2cc(OC)c(OC)cc2CC(C)N1Cc1ccc(OC)cc1 (centres undefined)	9.8
CC1(C(=O)NS(=O)(=O)c2cccc(C#N)c2)CCN1C(=O)Cc1ccccc1 (centres undefined)	-3.8
COc1cccc(-c2ccc3c(c2)O[C@@H](CN(C)C(=O)C2CC2)[C@H](C)CN([C@@H](C)CO)S3(=O)=O)c1	2.1
CCC(=O)N(C)C[C@H]1Oc2cc(-c3cccnc3)ccc2S(=O)(=O)N([C@H](C)CO)C[C@@H]1C	0.7
O=S1(=O)CC(N2CCN(c3ccccn3)CC2)CN1Cc1ccccc1 (centres undefined)	-1.8
C[C@H](CO)N1C[C@H](C)[C@H](CN(C)C)Oc2ccc(NC(=O)Nc3ccc(F)cc3)cc2C1=O	0.3
CCc1nc2c(OCc3ccc4c(c3)OCO4)cccn2c1N(C=O)Cc1ccc(OC)cc1	3.5
COc1ccc(C#Cc2ccc([C@@H]3[C@H]4CN(C(=O)Nc5ccccc5F)CCCCN4[C@H]3CO)cc2)cc1	-8.5
CC1=C(C(=O)N(C(C)C)C(C)C)CC(CC(=O)NCc2ccco2)C(=O)N1CCC1=CCCCC1 (centres undefined)	0.9
CCC(=O)N1C[C@@H](C)[C@@H](OC)CN(C)C(=O)c2cc(NC(=O)C3CCCCC3)ccc2OC[C@@H]1C	0.8
Cc1ccccc1CC(=O)Nc1ccc2c(c1)c(=O)n(C)n2-c1cccs1	-2.6
COc1ccc(S(=O)(=O)N(C)C[C@H]2Oc3ccc(NS(=O)(=O)c4ccccc4)cc3CC(=O)N([C@@H](C)CO)C[C@@H]2C)cc1	-0.4
O=C(C[C@@H]1C[C@@H]2c3cc(NC(=O)Nc4ccccc4)ccc3O[C@@H]2[C@@H](CO)O1)NCc1ccccn1	-0.4
Cc1ccccc1S(=O)(=O)N1[C@@H](C#N)[C@@H](c2ccc(C#CC3CCCC3)cc2)[C@@H]1CO	-1.2
Cc1ccc(-c2cnc3c(c2)C(=O)N([C@@H](C)CO)C[C@@H](C)[C@@H](CN(C)CC2CCOCC2)O3)cc1	-4.7
C[C@@H]1CN([C@@H](C)CO)C(=O)Cc2cc(NS(=O)(=O)c3cccs3)ccc2O[C@@H]1CN(C)S(=O)(=O)c1ccc(F)cc1	-1.6
Cc1cccc(N2CCN(C(=O)c3[nH]c(C(F)(F)F)nc3-c3ccccc3)CC2)c1C	-0.4
Cc1ccc(S(=O)(=O)N(C)C[C@@H]2OCCCC[C@H](C)Oc3ccc(N(C)C)cc3C(=O)N([C@@H](C)CO)C[C@@H]2C)cc1	?
CCC(=O)N1[C@@H]2Cn3c(ccc(C4=CCCCC4)c3=O)[C@H]1[C@@H](C(=O)N[C@H](C)c1ccccc1)[C@@H]2CO	1.6
COC(=O)c1cc2c(c3c4ccccc4n(S(C)(=O)=O)c13)C(=O)N(Cc1ccccc1)C2	3.3

Six entries out of the list above, ordered by their value in AF4-AF9 inh, high to low.
SMILES	AF4-AF9 inh
C[C@H](CO)N1C[C@H](C)[C@@H](CN(C)CC2CCCCC2)Oc2ccc(NC(=O)Nc3cccc4ccccc34)cc2C1=O	10
Cc1ccc(S(=O)(=O)N(C)C[C@@H]2Oc3ccc(NS(=O)(=O)c4c(C)noc4C)cc3CC(=O)N([C@H](C)CO)C[C@@H]2C)cc1	1.1
Cc1ccc(S(=O)(=O)NC(=O)C2(C)CCN2C(=O)Cc2ccc(C(C)(C)C)cc2)nc1 (centres undefined)	0.1
C[C@@H]1CN([C@@H](C)CO)C(=O)c2cccc(NC(=O)Nc3ccc(F)cc3)c2O[C@@H]1CN(C)CC1CCCCC1	-1.3
Cc1noc(C)c1NC(=O)N(C)C[C@@H]1Oc2ccc(NC(=O)Nc3ccc(F)cc3)cc2CC(=O)N([C@@H](C)CO)C[C@@H]1C	-2.7
COc1ccc(C#Cc2ccc3c(c2)O[C@@H](CN(C)S(=O)(=O)c2ccccc2F)[C@@H](C)CN([C@@H](C)CO)S3(=O)=O)cc1	-3.8

An excerpt from above in order of formula weight, descending.
SMILES	AF4-AF9 inh
Cc1ccc(S(=O)(=O)N(C)C[C@@H]2OCCCC[C@H](C)Oc3ccc(N(C)C)cc3C(=O)N([C@@H](C)CO)C[C@@H]2C)cc1	?
CCC(=O)N1[C@@H]2Cn3c(ccc(C4=CCCCC4)c3=O)[C@H]1[C@@H](C(=O)N[C@H](C)c1ccccc1)[C@@H]2CO	1.6
Cc1cccc(N2CCN(C(=O)c3[nH]c(C(F)(F)F)nc3-c3ccccc3)CC2)c1C	-0.4

High-throughput results deposited in PubChem by Broad Institute.
